Assay outcomes from PubChem BioAssay.
A1_apoptosis_2 = A1 inhibitors via caspase activation, primary screen, cell-based, luminescence, HTS, two replicates; 24,000 tested, under 10 active; MEF A1-2A-BIM cells, caspase-Glo luminescence, 3 h; percent of clofoctol response, DMSO zero; caspase activation, % (concentration not given with the values); in the data active means caspase activation above about 5.9%;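 further: wells of about 30 µL received 50 nL stock; the first replicate is given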
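Evaluation: Caspase-3/7 activity from luminescence increase | Assay system: A1-2A-BIM mouse embryonic fibroblasts | Quantity: 2500 MEF cells/well | Medium: RPMI-1640 plus 10% FBS | Detection: Caspase-Glo 3/7 luminescence, 1 h at room temperature | Dosing: 50 nL compound per well, pinned | Timing: Cells settled overnight, compound exposure 3 h at 37 °C, 5% CO2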
* = called active by the depositor. A portion of the library; rates above refer to the full screens.

SMILES A1_apoptosis_2
CC(C)NC(=O)Nc1ccc2c(c1)C(=O)N([C@H](C)CO)C[C@@H](C)[C@H](CN(C)C(=O)Cc1ccccc1)OCCCC[C@@H](C)O2 0.0
COc1ccc(S(=O)(=O)N(C)C[C@@H]2OCCCC[C@H](C)Oc3ccc(NC(=O)Cc4ccccc4)cc3C(=O)N([C@@H](C)CO)C[C@@H]2C)cc1 0.1
C[C@H]1CN([C@@H](C)CO)C(=O)Cc2cc(NC(=O)NC3CCCCC3)ccc2O[C@@H]1CN(C)Cc1ccc(C(=O)Nc2ccccc2N)cc1 -1.1
Cc1noc(C)c1NC(=O)N(C)C[C@@H]1Oc2c(NC(=O)c3nc4ccccc4s3)cccc2C(=O)N([C@@H](C)CO)C[C@H]1C 0.1
C[C@H]1CN([C@@H](C)CO)C(=O)Cc2cc(NC(=O)Cc3ccccc3)ccc2O[C@@H]1CN(C)C -0.1
C[C@@H]1CN([C@H](C)CO)C(=O)c2cc(NC(=O)CCC(F)(F)F)ccc2O[C@@H]1CN(C)S(=O)(=O)c1ccc(Cl)cc1 1.5
C[C@H]1CN([C@@H](C)CO)C(=O)c2cccc(NC(=O)C3CCOCC3)c2O[C@@H]1CN(C)CC1CCCCC1 -0.3
C[C@H]1CN([C@@H](C)CO)C(=O)Cc2cc(NC(=O)NC3CCCCC3)ccc2O[C@H]1CN(C)CC1CCCCC1 0.2
COc1ccc(S(=O)(=O)Nc2cccc3c2O[C@H](CN(C)Cc2ccc(C(=O)Nc4ccccc4N)cc2)[C@@H](C)CN([C@H](C)CO)C3=O)cc1 0.3
C[C@@H]1CCCCO[C@H](CN(C)Cc2ccc(Cl)c(Cl)c2)[C@H](C)CN([C@@H](C)CO)C(=O)c2cc(NC(=O)Nc3ccc(C(F)(F)F)cc3)ccc2O1 -0.7
C[C@@H]1CCCCO[C@H](CN(C)S(=O)(=O)c2cccs2)[C@@H](C)CN([C@@H](C)CO)C(=O)c2cc(NC(=O)Cc3ccccc3)ccc2O1 -0.1
COc1ccc(NC(=O)N(C)C[C@@H]2OCCCC[C@H](C)Oc3ccc(NS(C)(=O)=O)cc3C(=O)N([C@H](C)CO)C[C@H]2C)cc1 -1.9
C[C@H](CO)N1C[C@H](C)[C@H](CN(C)S(=O)(=O)c2ccc(F)cc2)OCCCC[C@H](C)Oc2ccc(NS(=O)(=O)c3cn(C)cn3)cc2C1=O -0.6
Cc1ccc(S(=O)(=O)Nc2cccc3c2O[C@H](CN(C)C(=O)Nc2c(C)noc2C)[C@@H](C)CN([C@@H](C)CO)C3=O)cc1 -1.2
C[C@@H]1CCCCO[C@H](CN(C)S(=O)(=O)c2ccc(Cl)cc2)[C@@H](C)CN([C@@H](C)CO)C(=O)c2cc(NC(=O)c3ccccc3)ccc2O1 -0.1
C[C@@H]1CCCCO[C@@H](CN(C)C(=O)Cc2ccccc2)[C@@H](C)CN([C@H](C)CO)C(=O)c2cc(NC(=O)Nc3ccc(F)cc3)ccc2O1 0.6
C[C@H]1CN([C@@H](C)CO)C(=O)c2cccc(NS(C)(=O)=O)c2O[C@@H]1CN(C)Cc1ccc(C(F)(F)F)cc1 0.5
C[C@@H]1CCCCO[C@@H](CN(C)Cc2ccc(Cl)c(Cl)c2)[C@H](C)CN([C@@H](C)CO)C(=O)c2cc(NS(C)(=O)=O)ccc2O1 -0.5
C[C@H]1CN([C@@H](C)CO)C(=O)c2cc(NC(=O)CCN3CCOCC3)ccc2O[C@H]1CN(C)S(=O)(=O)c1ccc(F)cc1 0.9
CC(C)NC(=O)N(C)C[C@H]1Oc2ccc(NC(=O)Cn3cnnn3)cc2C(=O)N([C@@H](C)CO)C[C@H]1C -1.2
C[C@@H]1CN([C@H](C)CO)C(=O)c2cc(NS(=O)(=O)c3ccc(F)cc3)ccc2O[C@@H](C)CCCCO[C@@H]1CN(C)Cc1ccncc1 -1.8
COc1ccc(S(=O)(=O)Nc2ccc3c(c2)CC(=O)N([C@H](C)CO)C[C@H](C)[C@H](CN(C)CC2CC2)O3)cc1 0.3
C[C@@H]1CCCCO[C@H](CN(C)C(=O)c2ccccc2)[C@H](C)CN([C@H](C)CO)C(=O)c2cc(NS(=O)(=O)c3cn(C)cn3)ccc2O1 0.8
C[C@H](CO)N1C[C@H](C)[C@H](CN(C)Cc2ccc(Oc3ccccc3)cc2)Oc2c(NC(=O)c3nc4ccccc4s3)cccc2C1=O -0.4
C[C@H]1CN([C@@H](C)CO)C(=O)c2cc(NC(=O)Nc3cccc4ccccc34)ccc2O[C@H]1CN(C)Cc1ccc2c(c1)OCO2 -0.8
Next structures.
SMILES A1_apoptosis_2
COc1ccc(NC(=O)N(C)C[C@@H]2OCCCC[C@H](C)Oc3ccc(NC(=O)C4CCCCC4)cc3C(=O)N([C@@H](C)CO)C[C@@H]2C)cc1 1.2
COc1ccc(S(=O)(=O)Nc2ccc3c(c2)CC(=O)N([C@H](C)CO)C[C@@H](C)[C@H](CN(C)C(=O)NC(C)C)O3)cc1 0.0
CC(C)NC(=O)N(C)C[C@H]1OCCCC[C@H](C)Oc2ccc(N(C)C)cc2C(=O)N([C@@H](C)CO)C[C@@H]1C -1.4
C[C@@H]1CCCCO[C@H](CN(C)Cc2ccc(C(=O)O)cc2)[C@@H](C)CN([C@@H](C)CO)C(=O)c2cc(NS(=O)(=O)c3ccccc3)ccc2O1 0.9
C[C@@H]1CN([C@H](C)CO)C(=O)Cc2cc(NC(=O)C3CC3)ccc2O[C@@H]1CN(C)CC1CC1 1.5
CNC[C@@H]1Oc2ccc(NS(=O)(=O)c3cccs3)cc2CC(=O)N([C@@H](C)CO)C[C@H]1C -0.2
C[C@H](CO)N1C[C@H](C)[C@H](CN(C)C(=O)Nc2ccc(F)cc2)Oc2ccc(NS(=O)(=O)c3ccc(Cl)cc3)cc2CC1=O -0.8
C[C@@H]1CN([C@@H](C)CO)C(=O)c2cc(NS(C)(=O)=O)ccc2O[C@H]1CN(C)S(=O)(=O)c1ccc(Cl)cc1 0.2
C[C@H](CO)N1C[C@H](C)[C@@H](CN(C)S(=O)(=O)c2cccs2)Oc2ccc(NC(=O)CCN3CCOCC3)cc2CC1=O 0.2
C[C@@H]1CN([C@@H](C)CO)C(=O)c2cc(NC(=O)Cc3cn(C)c4ccccc34)ccc2O[C@@H]1CN(C)Cc1ccc(C(=O)Nc2ccccc2N)cc1 1.5
C[C@H](CO)N1C[C@H](C)[C@H](CN(C)C(=O)CCCN(C)C)OCCCC[C@H](C)Oc2ccc(NC(=O)Nc3ccccc3)cc2C1=O -1.6
COC(=O)[C@@]1(Cc2ccccc2CN=[N+]=[N-])COC(c2ccc(OCCCO)cc2)=N1 0.3
CNC[C@H]1Oc2ccc(NC(=O)Nc3ccc(C(F)(F)F)cc3)cc2C(=O)N([C@@H](C)CO)C[C@@H]1C -0.3
O=C(Nc1ccccc1)c1ccc(CNc2nccc(-c3cccnc3)n2)cc1 0.3
C[C@@H]1CN([C@H](C)CO)C(=O)Cc2cc(NC(=O)Nc3cccc4ccccc34)ccc2O[C@@H]1CN(C)Cc1ccccc1 1.8
CNC[C@H]1OCCCC[C@@H](C)Oc2ccc(NC(=O)c3ccncc3)cc2C(=O)N([C@H](C)CO)C[C@H]1C 0.2
C[C@H](CO)N1C[C@H](C)[C@H](CN(C)C(=O)Nc2ccc(F)cc2)Oc2ccc(NC(=O)C3CC3)cc2C1=O -0.6
O=C(NO)c1ccc(C(=O)N/N=C/c2cccc(O)c2O)cc1 0.3
C[C@@H]1CCCCO[C@@H](CN(C)C(=O)CCCN(C)C)[C@@H](C)CN([C@H](C)CO)C(=O)c2cc(NC(=O)Cc3ccccc3)ccc2O1 0.4
COc1ccc(CN(C)C[C@@H]2Oc3ccc(NS(=O)(=O)c4ccc(C)cc4)cc3CC(=O)N([C@@H](C)CO)C[C@H]2C)cc1 -1.0
C[C@@H]1CN([C@H](C)CO)C(=O)c2cccc(NC(=O)Nc3ccc(F)cc3)c2O[C@@H]1CN(C)Cc1ccc2c(c1)OCO2 -0.2
C[C@@H]1CCCCO[C@H](CN(C)C(=O)Nc2ccccc2)[C@H](C)CN([C@@H](C)CO)C(=O)c2cc(NC(=O)c3ccccc3)ccc2O1 -1.3
Cc1ccc(S(=O)(=O)N(C)C[C@H]2OCCCC[C@@H](C)Oc3ccc(NC(=O)Cc4ccccc4)cc3C(=O)N([C@H](C)CO)C[C@@H]2C)cc1 -0.7
C[C@H](CO)N1C[C@H](C)[C@@H](CN(C)C(=O)Nc2ccccc2)Oc2ccc(NC(=O)C3CC3)cc2CC1=O 0.6
C[C@H]1CN([C@@H](C)CO)C(=O)CCCn2nncc2CO[C@@H]1CN(C)S(=O)(=O)c1ccc(-n2cccn2)cc1 -1.3
(cont.)
SMILES A1_apoptosis_2
C[C@H](CO)N1C[C@H](C)[C@@H](CN(C)Cc2ccc3c(c2)OCO3)Oc2ccc(NC(=O)c3ccncc3)cc2CC1=O 0.9
COc1ccc(S(=O)(=O)N(C)C[C@@H]2Oc3ccc(NS(=O)(=O)c4cn(C)cn4)cc3C(=O)N([C@H](C)CO)C[C@H]2C)cc1 -0.9
CNC[C@@H]1OCc2cn(nn2)CCCC(=O)N([C@@H](C)CO)C[C@@H]1C 1.2
C[C@@H]1CN([C@H](C)CO)C(=O)c2cc(NC(=O)Nc3ccccc3)ccc2O[C@@H](C)CCCCO[C@H]1CN(C)Cc1ccncc1 -0.6
C[C@@H]1CCCCO[C@@H](CN(C)C(=O)NC2CCCCC2)[C@H](C)CN([C@@H](C)CO)C(=O)c2cc(NC(=O)Nc3cccc4ccccc34)ccc2O1 -0.2
C[C@@H]1CCCCO[C@H](CN(C)Cc2ccncc2)[C@H](C)CN([C@H](C)CO)C(=O)c2cc(NS(=O)(=O)c3cn(C)cn3)ccc2O1 1.0
C[C@@H]1CCCCO[C@H](CN(C)S(=O)(=O)c2cccs2)[C@H](C)CN([C@@H](C)CO)C(=O)c2cc(NS(=O)(=O)c3ccc(Cl)cc3)ccc2O1 -0.5
Cc1noc(C)c1NC(=O)Nc1ccc2c(c1)CC(=O)N([C@H](C)CO)C[C@@H](C)[C@H](CN(C)S(=O)(=O)c1cccs1)O2 -0.1
C[C@@H]1CN([C@H](C)CO)C(=O)c2cccc(NC(=O)Nc3cccc4ccccc34)c2O[C@H]1CN(C)C(=O)Nc1ccc2c(c1)OCO2 0.6
C[C@@H]1CCCCO[C@H](CN(C)Cc2ccc(C(F)(F)F)cc2)[C@@H](C)CN([C@@H](C)CO)C(=O)c2cc(NC(=O)C3CCCCC3)ccc2O1 -1.4
C[C@H]1CCCCO[C@H](CN(C)S(=O)(=O)c2ccc(F)cc2)[C@@H](C)CN([C@@H](C)CO)C(=O)c2cc(N(C)C)ccc2O1 -0.1
Cc1ccc(S(=O)(=O)Nc2ccc3c(c2)C(=O)N([C@H](C)CO)C[C@H](C)[C@@H](CN(C)S(C)(=O)=O)OCCCC[C@H](C)O3)cc1 -0.1
C[C@@H]1CCCCO[C@H](CN(C)S(=O)(=O)c2ccc(F)cc2)[C@H](C)CN([C@@H](C)CO)C(=O)c2cc(NC(=O)CCCN(C)C)ccc2O1 -1.3
C[C@@H]1CN([C@H](C)CO)C(=O)c2cc(NC(=O)c3ccncc3)ccc2O[C@H]1CN(C)C -1.3
C[C@H](CO)N1C[C@H](C)[C@@H](CN(C)S(C)(=O)=O)Oc2ccc(NS(C)(=O)=O)cc2C1=O 0.7
Cc1ccc(S(=O)(=O)Nc2ccc3c(c2)C(=O)N([C@@H](C)CO)C[C@H](C)[C@@H](CN(C)C(=O)NC2CCCCC2)OCCCC[C@@H](C)O3)cc1 -0.3
C=CCNC(=O)[C@H]1[C@@H]2C(=O)O[C@@H](c3ccccc3)[C@@H](c3ccccc3)N2[C@@H](c2ccc(O)cc2)[C@]12C(=O)Nc1ccc(C#CCC(C(=O)OC)C(=O)OC)cc12 0.6
C[C@H]1CN([C@@H](C)CO)C(=O)c2cccc(NS(=O)(=O)c3ccc(F)cc3)c2O[C@H]1CN(C)C(=O)Nc1ccc2c(c1)OCO2 0.0
Cc1noc(C)c1S(=O)(=O)Nc1ccc2c(c1)CC(=O)N([C@H](C)CO)C[C@H](C)[C@H](CN(C)C)O2 -0.2

Eleven compounds out of the list, arranged by heavy-atom count, smallest number first.
SMILES A1_apoptosis_2
CNC[C@@H]1OCc2cn(nn2)CCCC(=O)N([C@@H](C)CO)C[C@@H]1C 1.2
C[C@H](CO)N1C[C@H](C)[C@@H](CN(C)S(C)(=O)=O)Oc2ccc(NS(C)(=O)=O)cc2C1=O 0.7
C[C@@H]1CN([C@H](C)CO)C(=O)c2cc(NC(=O)c3ccncc3)ccc2O[C@H]1CN(C)C -1.3
C[C@H]1CCCCO[C@H](CN(C)S(=O)(=O)c2ccc(F)cc2)[C@@H](C)CN([C@@H](C)CO)C(=O)c2cc(N(C)C)ccc2O1 -0.1
Cc1ccc(S(=O)(=O)Nc2ccc3c(c2)C(=O)N([C@H](C)CO)C[C@H](C)[C@@H](CN(C)S(C)(=O)=O)OCCCC[C@H](C)O3)cc1 -0.1
C[C@H]1CN([C@@H](C)CO)C(=O)c2cccc(NS(=O)(=O)c3ccc(F)cc3)c2O[C@H]1CN(C)C(=O)Nc1ccc2c(c1)OCO2 0.0
C[C@@H]1CN([C@H](C)CO)C(=O)c2cc(NC(=O)Nc3ccccc3)ccc2O[C@@H](C)CCCCO[C@H]1CN(C)Cc1ccncc1 -0.6
C[C@@H]1CCCCO[C@H](CN(C)S(=O)(=O)c2ccc(F)cc2)[C@H](C)CN([C@@H](C)CO)C(=O)c2cc(NC(=O)CCCN(C)C)ccc2O1 -1.3
C[C@@H]1CCCCO[C@H](CN(C)Cc2ccc(C(F)(F)F)cc2)[C@@H](C)CN([C@@H](C)CO)C(=O)c2cc(NC(=O)C3CCCCC3)ccc2O1 -1.4
C[C@@H]1CCCCO[C@@H](CN(C)C(=O)NC2CCCCC2)[C@H](C)CN([C@@H](C)CO)C(=O)c2cc(NC(=O)Nc3cccc4ccccc34)ccc2O1 -0.2
C=CCNC(=O)[C@H]1[C@@H]2C(=O)O[C@@H](c3ccccc3)[C@@H](c3ccccc3)N2[C@@H](c2ccc(O)cc2)[C@]12C(=O)Nc1ccc(C#CCC(C(=O)OC)C(=O)OC)cc12 0.6
